# RanGTP-Imp inh: inhibitors of RanGTP-importin-beta interaction, primary screen, biochemical, FRET, CFP-Ran, YFP-importin-beta, homogeneous. cell-free CFP-Ran/YFP-importin-beta FRET ratio. inhibition, % (no concentration beside the values). hit rate 1.1% among 300,000;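 active means most replicates above 15%; inconclusive means exactly half above 15%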;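 further: 0% = DMSO wells and 100% = Ran loaded with GDP instead of GTP; wells of about 40 µL received 100 nL stock; the first replicate is given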
# Vif A3G: HIV-1 Vif–A3G interaction blockers – biochemical, TR-FRET, GST-Vif 1-94, biotin-A3G peptide, dose response retest, primary screen (AID 1117319). TR-FRET GST-Vif / biotin-A3G peptide binding; higher % means a stronger effect; test concentration not given here; strong numbers were not always called active. inhibition, %; hits with a dose series show IC50 in µM. hit rate 0.57% among 260,000;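 active means above the screen mean plus three standard deviations and confirmed in dose response; inconclusive means results disagree or hit not tested in dose response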;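 further: Vif residues 1-94 fused to GST binding biotinylated APOBEC3G peptide 110-148; 0% = full assay without inhibitor and 100% = GST in place of GST-Vif; retest series ran down from 100 µM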
# rRNA inh HTS: inhibits bacterial ribosomal RNA function over humanized ribosomes; GFP signal change (wild-type ribosome), % (test concentration not listed); hit rate 1.6% among 350,000; E. coli WT GFP vs humanized-ribosome RFP mutants, fluorescence, 24 h; stronger effect = lower value; DMSO median 0, no signal -100;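 active means significant combined selectivity score with lowered wild-type GFP, culture density cut under 30%, mutant RFP and density less affected; inactive means any of these conditions unmet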; further: one replicate is shown; some compounds called inactive have numbers as strong as hits
# MLL AF4-AF9 inh: inhibitors of human MLL-AF4/AF9 interaction; P42568; AlphaScreen, biotin-AF4 peptide binding to FLAG-AF9; inhibition, % at 10 µM; hit rate 0.47% among 350,000; AID 651704;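 active means every replicate reaching a set inhibition limit, whatever the replicate mean, cut at about 25% in these data; inconclusive means mean inhibition reaches that limit but some replicates miss it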;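 further: 0% = plate neutral control median and 100% = total signal loss; the record names both 10 and 1 µM as test concentration; the first replicate is given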
# Target sequence (P42568 whole entry, looked up): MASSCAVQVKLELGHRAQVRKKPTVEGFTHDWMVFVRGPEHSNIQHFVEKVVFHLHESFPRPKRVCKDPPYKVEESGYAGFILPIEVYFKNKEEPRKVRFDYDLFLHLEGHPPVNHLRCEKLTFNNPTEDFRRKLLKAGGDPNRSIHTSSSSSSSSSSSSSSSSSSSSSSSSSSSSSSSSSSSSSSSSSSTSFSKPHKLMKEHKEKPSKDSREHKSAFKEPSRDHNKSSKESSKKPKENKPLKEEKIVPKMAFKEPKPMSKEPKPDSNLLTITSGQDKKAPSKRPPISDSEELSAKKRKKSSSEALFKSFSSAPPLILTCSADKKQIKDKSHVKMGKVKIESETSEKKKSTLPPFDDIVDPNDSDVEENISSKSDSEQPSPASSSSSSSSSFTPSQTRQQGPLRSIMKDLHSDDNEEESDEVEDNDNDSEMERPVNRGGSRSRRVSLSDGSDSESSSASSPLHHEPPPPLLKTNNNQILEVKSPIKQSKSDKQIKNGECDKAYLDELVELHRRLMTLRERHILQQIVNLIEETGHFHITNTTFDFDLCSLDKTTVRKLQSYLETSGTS
# T cruzi inh: blocks replication of Trypanosoma cruzi; T. cruzi beta-gal in NIH3T3, luminescence, 90 h; inhibition, % (concentration not given with the values); hit rate 1.4% among 300,000; AID 1885;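 active means mean inhibition across valid replicates above about 55%, limit read from the data; inconclusive means mean below that limit but half or more replicates reach it; inactive means mean below it, under half of replicates reach it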;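 further: signal also drops with host cell toxicity which is not excluded here; 0% = plate median of DMSO wells and 100% = zero luminescence signal; higher percent means less beta-gal luminescence so fewer parasites; stock transfer was 50 nL into about 50 µL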
# Beta apoptosis: beta cell apoptosis inhibition. INS-1E cytokine-induced death, ATP luminescence, 48 h; percent of positive-control rescue, neutral wells zero. protection from apoptosis, % (no concentration beside the values). hit rate 0.8% among 300,000;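 active means all replicates at 75% or more, or half of them and the mean; inconclusive means half reach 75% but not the mean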;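 further: 0% = cytokine-treated negative control wells and 100% = positive control rescue; higher means more ATP so stronger rescue from cytokine killing; wells of about 40 µL received 100 nL stock; the first replicate is given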
# A1 inh: inhibitors of the anti-apoptotic protein A1, read as caspase activation; AID 2462; hit rate 0.066% among 330,000; caspase activation, % (no concentration beside the values); MEF A1-2A-BIM cells, Caspase-Glo 3/7 luminescence, 3 h; percent of clofoctol response, vehicle zero;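 active means over half of replicate activation scores above 10%, or exactly half above 10 with the replicate mean above 10; inconclusive means replicate mean below 10 yet half the replicates above 10; inactive means over half of replicates below 10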;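 further: wells of about 30 µL received 50 nL stock; many hits fall short of the cut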
# Calb FLC: affects C. albicans growth with fluconazole | C. albicans CaCi-2 (fluconazole-resistant clinical isolate) + fluconazole, Alamar Blue growth, 48 h | growth inhibition, % (concentration not given with the values) | hit rate 0.57% among 300,000 | AID 1979;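 active means most replicates above 75%; inconclusive means exactly half above 75%; inactive means most below 75%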;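 further: all wells also contain fluconazole at 8 µg/ml as a sub-toxic cotreatment; 0% = median of DMSO wells and 100% = median of geldanamycin control wells; wells of about 8 µL received 7.5 nL stock; the first replicate is given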
# rRNA inh HTS OD600: recorded beside rRNA inh HTS, whose call it bears; OD600 change, %; measured here: OD600 growth;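 optical density of the mix in the first replicate; 0 = DMSO median and -100 = no signal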
# rRNA inh HTS RFP: further read-out of rRNA inh HTS, marked with its call; RFP signal change, %; measured here: RFP humanized mutant strains;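 first replicate; 0 = DMSO median and -100 = no signal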
# Numbers without * were called inactive; u = inconclusive; x = not tested or not shown; & = joins results of further samples.
structure,T cruzi inh,RanGTP-Imp inh,rRNA inh HTS,rRNA inh HTS OD600,A1 inh,Beta apoptosis,MLL AF4-AF9 inh,rRNA inh HTS RFP,Vif A3G,Calb FLC
CC(C)CCn1cnc2c1c(=O)[nH]c(=O)n2Cc1ccccc1,3,1.4,2,7,1.2,x,-3.6,0.6,-1%,-13
CCN1CCN(CCCNC(=O)c2cn(CCOC)c(=O)c3c2c2ccccc2n3C)CC1,12,12,10,8,-0.1,-3,-1.9,-2.2,31%&4%,-8
CCN(CC)CCN1C(=O)C(O)=C(C(=O)c2cccs2)C1c1ccc(C)o1 (stereo unspecified),-11,-1.9,x,x,-2.0,-2,x,x,0%,9
Cc1ccccc1NC(=O)c1cccc(NC(=O)c2ccccc2C(=O)O)c1,-8,-2.5,-2,-3,1.0,-6,2.7,-1.2,x,1
CCOc1cc(CNCC(O)c2ccccc2)cc(Cl)c1OC (stereo unspecified),28,0.4,7,-1,-0.2,-5,-0.7,-0.2,-6%,u
COc1ccccc1OCCCn1c(C)c(C#N)c2ccccc21,25,2.5,x,x,-1.3,1,x,x,-1%,8
COc1ccc([N+](=O)[O-])cc1C1NN=C(c2cccc3ccccc23)S1 (stereo unspecified),18,1.8,x,x,0.9,0,x,x,-3%,19
Cc1ccc(-n2ncc(C(=O)O)c2C2CCN(C(=O)OC(C)(C)C)CC2)cc1,-2,4.0,x,x,-0.7,-10,x,x,23%,-3
CCC(C)NC(=O)c1nn(C)c(=O)c2ccccc12 (stereo unspecified),-12,-0.2,9,0,-0.1,x,-0.8,-1.4,20%,13
CCN1C(=NCCCOC(C)C)N[C@@H](c2ccccc2)[C@H](C(=O)OC)[C@H]1C,x,x,8,-2,-0.4,-4,-2.4,7.3,x,x
COc1ccccc1Oc1ccc(NC(=O)c2ccccc2C)cc1,7,5.3,6,8,-1.3,13,-1.8,-1.4,11%,11
CCn1c2ccccc2c2cc(CNCc3ccc(OC)cc3OC)ccc21,48,8.7,-53,-81,0.3,9,22,-13,-3%,u
O=c1[nH]c(Nc2ccc3c(c2)OCCO3)nnc1Cc1ccc(Cl)cc1,-4,1.9,15,7,0.5,-5,-2.3,3.0,4%,34
CC(=O)OCC(COC(C)=O)OC(C)=O,x,x,9,1,0.5,-2,5.1,3.7,x,x
O=C(O)CCC(=O)NNC(=O)c1ccc(-c2ccccc2)cc1,-3,1.4,x,x,-0.1,x,x,x,25%,1
O=C(CCC(=O)Nc1ccccc1)NNC(=O)C(c1ccccc1)c1ccccc1,-11,2.1,x,x,-0.1,-3,x,x,x,u
O=C(CNCc1ccccc1Cl)NCc1ccco1,-3,-1.0,2,5,0.4,x,0.6,-1.3,15%,-6
COc1cc(/C=C/c2nnc3c4ccccc4ncn23)cc(OC)c1OC,1,0.3,-13,-16,0.2,12,8.7,23,x,-4
CC(C)OC(=O)Cn1c(=O)sc2ccccc21,-14,2.0,x,x,0.5,2,x,x,13%,-18
Cc1cc(N2CCN(C)CC2)ccc1NC(=O)c1cccc(S(=O)(=O)N2CCc3ccccc3C2)c1,75*,1.6,1,0,-0.3,5,5.7,11,7%,-11
CC(=O)c1ccc(NC(=O)CCNS(=O)(=O)c2cc(Br)cnc2N)cc1,-3,7.9,-17,-13,-1.1,-3,1.9,0.7,-2%,12
O=C(Nc1ccnc(-c2ccncc2)n1)c1ccccc1Cl,51,-2.9,12,12,-0.3,0,-1.8,0.7,x,35
COc1ccc(NS(=O)(=O)c2ccc3oc(SC)nc3c2)cc1,-18,-1.1,-6,-11,0.3,2,-1.1,6.0,-3%,-3
CCOC(=O)C1CCN(C(=O)CCS(=O)(=O)c2ccc3c(c2)CCN3C(C)=O)CC1,5,0.2,x,x,0.8,-4,x,x,16%,-3
COC(=O)C1=C(C)NC2=C(C(=O)C(C(=O)OC)C(c3ccc(OC)cc3)C2)C1c1ccccn1 (stereo unspecified),7,12,x,x,-0.1,-4,x,x,u,-16
CCn1cc(CNC(=O)CCc2ccc(OC)cc2)cn1,-27,-0.2,x,x,-0.2,-6,x,x,u,-6
CC1(C)CC(N(Cc2ccco2)C(=O)Cc2ccccc2)CCO1 (stereo unspecified),9,-4.7,x,x,-0.2,-1,x,x,u,0
N#C/C(=C\Nc1ccc(F)c(Cl)c1)C(=O)C1CC1,7,-3.8,-14,-2,0.3,-1,x,-0.7,9%,47
NC(=O)c1c(NC(=O)Cc2cccs2)sc2c1CCC2,8,-0.6,x,x,-0.1,-5,x,x,50µM*,28
Cn1c(CSCc2ccccc2Cl)nnc1SCC(=O)Nc1nccs1,-1,3.9,x,x,0.5,-3,x,x,3%,0
COc1ccc(CNCC(O)(c2ccc(Cl)cc2)c2ccc(Cl)cc2)cc1OC,15,x,x,x,0.1,-4,x,x,-2%,4
CN(c1ccccc1)S(=O)(=O)c1cccc(NC(=O)C2CCCO2)c1 (stereo unspecified),x,x,-4,-6,0.9,-3,-1.2,-0.1,-2%,x
COc1ccc(NC(=O)CCn2nc(C)cc2C)cc1,-15,-2.5,x,x,0.2,0,x,x,-5%,1
CC(Oc1cc2oc(=O)c3c(c2cc1Cl)CCC3)C(=O)NCCN1CCOCC1 (stereo unspecified),4,-0.3,-1,-2,1.6,-2,-2.4,2.8,x,-5
Cc1ccc(Cl)cc1NS(=O)(=O)c1c(C)[nH]c(=O)[nH]c1=O,-1,3.2,x,x,0.6,-5,x,x,-2%,0
CCOC(=O)C1(CCOC)CCN(C(=O)Cc2ccc3ccccc3c2)CC1,-10,3.4,-6,1,0.6,0,4.7,3.2,4%,3
COc1ccc(NC(=O)COC(=O)CNS(=O)(=O)c2ccc(C)cc2)c(OC)c1,2,4.2,x,x,0.0,x,x,x,-1%,5
Cc1ccc(CNC(=O)c2ccc(N(C)C)cc2)cc1,-12,-1.1,-10,-12,0.4,-10,1.1,-1.1,-4%,-9
COc1ccc(Oc2coc3cc(OCC(=O)N4CCCCC4)ccc3c2=O)cc1,-16,0.2,x,x,0.8,4,x,x,-6%,5
Cc1cnc(C(=O)OCc2nc3ccsc3c(=O)[nH]2)cn1,x,x,8,8,0.9,-3,0.3,0.1,x,x
COc1ccc(-c2nn(CCC(=O)O)cc2/C=C/C(=O)O)cc1[N+](=O)[O-],-2,-2.8,11,7,0.9,-9,-6.7,1.6,x,0
CCCCc1c(C)c2ccc(OC)c(/C(C)=N\O)c2oc1=O,-3,1.8,x,x,-0.3,-4,x,x,-15%,-1
COc1cccc(Nc2nc(N)nc(-c3oc4ccccc4c3C)n2)c1,6,0.2,x,x,0.3,5,x,x,-2%,38
CCc1nnc(NS(=O)(=O)c2ccc(NC(=O)COc3ccc4ccccc4c3)cc2)s1,3,-0.8,-26,-24,0.1,-2,-0.7,2.0,x,-15
O=C1CC(c2cccc(Cl)c2)CC(O)=C1C=NC1CCCC1 (stereo unspecified),-14,12,-21,-34,0.1,1,1.0,-15,2%,-3
COc1ccc2[nH]c(=O)c(CN(C(=O)c3ccncc3)C(C)C)cc2c1,5,-3.1,x,x,0.1,1,x,x,-1%,0
Cc1[nH]c2ccccc2c1N=Nc1ccccc1F,-12,-1.4,-62,-81,-0.9,3,41*,-27,0%,24
Cc1sc2ncn(-c3ccccc3)c(=O)c2c1C,-2,1.8,-2,4,-0.4,3,-0.7,-0.6,21%,3
COc1ccccc1CN1CC(C(=O)NCCc2cn[nH]c2)CCC1=O (stereo unspecified),-4,-1.4,12,9,0.3,1,-0.7,2.9,x,-8
Cc1ccc(S(=O)(=O)NNC(=O)c2cccs2)c(C)c1,3,u,13,8,0.2,x,-1.2,7.5,-3%,-1
CCOC(=O)N1CCN(C(=O)COc2cc(=O)n(C)c3ccccc23)CC1,4,-7.1,x,x,u,2,x,x,-6%,-16
CN(C)S(=O)(=O)c1ccc(Cl)c(C(=O)NCCNC(=O)c2cc(S(=O)(=O)N(C)C)ccc2Cl)c1,6,-3.6,13,5,-0.1,-3,-3.5,1.0,-6%,x
CCOC(=O)c1cnc(-c2ccccc2)nc1Oc1ccc(C)cc1,8,-0.7,x,x,0.5,-4,x,x,69%,1
CC(=O)Nc1ccc(C(=O)NNC(=O)C2CC2)cc1,-6,4.4,17,15,-1.1,-3,-1.1,4.5,x,23
COC(C(=O)Nc1ccnn1C1CCN(Cc2ccc(Cl)s2)CC1)c1ccccc1 (stereo unspecified),8,0.4,-22*,-7.5*,1.0,-3,0.4,-1.7*,-5%,-7
COc1cc([N+](=O)[O-])ccc1NC(=O)CN1CCOCC1,-2,2.8,0,-1,1.5,-4,-11,1.8,-5%,-3
CC(C)(C)C(=O)NC(=S)NNC(=O)c1ccncc1,-17,0.0,-24,-26,0.2,1,-3.0,-8.5,7%,-23
CCOc1ccc(CN(C(=O)c2ccco2)C2CCS(=O)(=O)C2)cc1 (stereo unspecified),0,7.3,x,x,0.4,0,x,x,-1%,4
Cc1ccc(OCC(O)CN2CCN(c3ccccc3)CC2)cc1 (stereo unspecified),1,2.1,x,x,-0.1,0,x,x,u,-23
O/N=C/c1cccnc1Sc1ccccc1,-8,1.6,3,-13,-0.4,4,3.0,-0.9,11%,6

# Continued:
structure,T cruzi inh,RanGTP-Imp inh,rRNA inh HTS,rRNA inh HTS OD600,A1 inh,Beta apoptosis,MLL AF4-AF9 inh,rRNA inh HTS RFP,Vif A3G,Calb FLC
CCNC(=S)N1N=C2c3ccccc3CCC2C1c1ccc(F)cc1 (stereo unspecified),-8,-2.8,-1,-12,0.2,21,x,-0.6,-6%,2
CC(OC(=O)c1cc(Cl)ccc1[N+](=O)[O-])C(=O)NC(C)c1ccc(F)cc1 (stereo unspecified),-7,3.5,x,x,-0.4,-1,x,x,15%,3
O=S(=O)(Nc1ccccc1)c1cccc2nsnc12,4,-1.8,2,-2,0.3,1,-18,1.6,x,8
CC(=O)Nc1nonc1-c1nc2ccccc2n1N(C(C)=O)C(C)=O,9,x,x,x,1.3,-7,x,x,11%,-16
COC(=O)C(C)Oc1ccc(-c2nccc(-c3cccs3)n2)cc1 (stereo unspecified),-12,8.2,x,x,-0.4,-7,x,x,-10%,3
Cc1ccc(NC(=O)CN(C)C(=O)Cn2c(=O)oc3ccccc32)cc1,x,x,11,14,1.0,-1,-4.4,1.9,5%,x
CCCS(=O)(=O)Nc1c(OC)ccc2c1c(C(=O)OCC)c(C)n2C,-19,-2.1,10,5,0.5,-5,-1.6,-7.0,x,-6

# Screens from PubChem.

# Not all compounds are listed; rates above refer to the full screens.
